High-throughput results from PubChem.
Sfp inh: blocks B. subtilis Sfp PPTase activity; 310,000 tested, 3.5% active; Biochemical Sfp PPTase activity, qHTS; Potency, µM, without a hit: max response, negative = inhibition, most hits filed as inhibitors; active means well fitted inhibition curve with a large enough effect; inconclusive means small, poorly fitted or top-dose-only effect, or another doubt; inactive means no such curve, though single readings can be large or run the other way;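 further: the enzyme is Sfp with the accession as filed and its product quenches rhodamine fluorescence; potency means the concentration at half of the fitted maximal effect; 0% = enzyme reaction without inhibitor and -100% = no enzyme wells; top concentration of the series not given in the record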
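Reaction rates are the 30-min fluorescence difference (ex 525, em 598 nm) in wells containing 15 nM Sfp, 5 uM rhodamine-CoA and 12.5 uM BHQ-2-YbbR at pH 7.6 with 10 mM MgCl2.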
Menin-MLL FL inh: menin-MLL binding inhibition, fluorescein peptide; FP activity change, % at 61.4 µM; Fluorescence polarization, fluorescein-MLL peptide displacement from menin; 290,000 tested, under 10 active; inconclusive = falling polarisation curve, or a change in total fluorescence; inactive = total fluorescence flat and polarisation flat or rising; no compound was filed as active; the % refers to the polarisation; negative = inhibition;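 further: % of control where 0% means no effect; inhibitors lower the polarisation; unlabelled MLL peptide was the positive control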
TRPV1 PAM: human TRPV1 potentiation | 320,000 tested, 0.02% active | Q8NER1 | TRPV1-expressing cells, Fluo-8 calcium influx, capsaicin EC20 potentiation; host cell line not named in the record; control for the full effect not named in the record | potentiation, % at 8.33 µM; active means potentiation above 80%; inconclusive means 30% to 80%; inactive means below 30%; further: 0% is about no effect
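TRPV1-expressing cells were cultured overnight at 35.5C and loaded with Fluo-8 calcium dye for 40 to 90 min at room temperature. After a 10 s baseline, compound was added and calcium influx was read kinetically for 3 min (ex 480/em 520 nm).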
ClpP mod: qHTS Assay for Activators of ClpP; ATP-dependent Clp protease proteolytic subunit (Bacillus subtilis (strain 168)), P80244; purified B. subtilis ClpP, FRET peptide cleavage, 20 min; Potency, µM (highest dose often 57.5 µM), without a hit: at the top dose activity change, negative = active; 340,000 tested, 1.9% active; AID 651965, 2013; active = well fitted falling curve with a large enough effect; inconclusive = small, poorly fitted or top-dose-only effect; inactive = no such curve, though single readings can be large or run the other way; further: potency means the concentration at half of the fitted maximal effect; the source files actives as falling curves though it sought activators and does not explain the sign; nearly all actives have a fitted effect of over 65% in size; many hits overshoot -100%
Target sequence (P80244 whole entry, looked up): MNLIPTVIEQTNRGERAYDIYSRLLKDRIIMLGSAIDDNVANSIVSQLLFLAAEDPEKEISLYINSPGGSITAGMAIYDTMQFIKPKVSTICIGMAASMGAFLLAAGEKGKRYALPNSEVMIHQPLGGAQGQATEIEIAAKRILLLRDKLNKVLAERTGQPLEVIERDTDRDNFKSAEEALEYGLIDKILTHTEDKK
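Buffer: 100 mM Tris/HCl pH8, 100 mM KCl, 0.05% low protease BSA, 2.5% glycerol, 0.01% Tween-20. ClpP 10 microg/mL final; 20 min RT; delta FRET normalized to ADEP and DMSO controls.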
TRPML1 blocker: blocks the human TRPML1 channel; TRPML1-inducible cells, Ca2+ dye fluorescence, FDSS; active compounds read low; inhibition of EC80 agonist-evoked calcium signal; 390,000 tested, 0.02% active; activity change, negative = inhibition, % (no concentration beside the values); in the data active means activity change below about -50%; inconclusive means about -30% to -50%; inactive means above about -30%;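 further: stimulus is agonist 54-4 at its EC80 concentration; on the % scale 0 is the no-effect control and ±100 the full control effect; compound concentration not given in the record; the text of the record puts the active cut at -80%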
Target sequence (Q9GZU1 whole entry, looked up): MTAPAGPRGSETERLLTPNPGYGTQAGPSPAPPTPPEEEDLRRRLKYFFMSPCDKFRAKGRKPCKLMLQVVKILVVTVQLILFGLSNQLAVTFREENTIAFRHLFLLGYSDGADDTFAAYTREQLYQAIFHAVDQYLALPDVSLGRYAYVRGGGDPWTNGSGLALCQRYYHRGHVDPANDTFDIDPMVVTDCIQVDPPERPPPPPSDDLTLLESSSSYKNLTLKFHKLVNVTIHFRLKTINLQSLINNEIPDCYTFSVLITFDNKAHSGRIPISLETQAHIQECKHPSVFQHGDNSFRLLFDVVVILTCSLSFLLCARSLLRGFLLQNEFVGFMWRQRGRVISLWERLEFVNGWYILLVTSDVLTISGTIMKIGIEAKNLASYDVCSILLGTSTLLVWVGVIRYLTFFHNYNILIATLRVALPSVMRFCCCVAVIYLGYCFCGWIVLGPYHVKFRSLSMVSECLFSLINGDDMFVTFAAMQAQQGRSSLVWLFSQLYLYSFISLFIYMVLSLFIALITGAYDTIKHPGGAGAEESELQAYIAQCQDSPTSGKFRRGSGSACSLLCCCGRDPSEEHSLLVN
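TRPML1-DL cells, Tet-induced overnight (~16 h, 37 °C) at 1,500 cells/well, were loaded with Ca8 no-wash dye plus quencher for 45-90 min at room temperature. Compounds were pinned during FDSS kinetic reading; agonist 54-4 at EC80 (4 uM final) then added.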
gsp ag: agonists of gsp mutant (McCune-Albright syndrome); 340,000 tested, 0.13% active; gsp mutant cells, cAMP HTRF, 30 min; control for the full effect not named in the record; Potency, µM (doses to about 76.9 µM), for the others: top-dose activation (cAMP increase), most hits filed as activators; active = well fitted activation curve with a large enough effect; inconclusive = small, poorly fitted or top-dose-only effect, or another doubt; inactive = no such curve, though single readings can be large or run the other way; cell line not stated here;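 further: phosphodiesterase inhibitor Ro 20-1724 added with compounds to block cAMP breakdown; potency means the concentration at half of the fitted maximal effect; nearly all actives have a fitted effect of over 60% in size; about a fifth of the inactives were tested at one dose only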
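Cells stably selected in G418 were plated at 2000/well, grown 16-24 hr, then given compounds in DMSO with the PDE inhibitor […] (300 uM solution added) for 30 min at 37C; cAMP was read by HTRF.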
gsp antag: antagonizes gsp, the McCune-Albright syndrome mutation. Potency, µM (highest dose often 76.9 µM), inactives show top-dose activity change, negative = inhibition, actives largely listed as inhibitors. 340,000 tested, 0.4% active. AID 624288. gsp-mutant cells, cAMP HTRF, 30 min; control for the full effect not named in the record; active = falling curve of any shape with a large fitted effect; inconclusive = falling curve, mostly with a smaller effect; inactive = flat or rising curve; cell line not stated here;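 further: intracellular cAMP measured with PDE inhibitor Ro 20-1724 present during compound exposure; potency means the concentration at half of the fitted maximal effect; on the % scale 0 is the no-effect control and ±100 the full control effect; nearly all actives have a fitted effect of over 65% in size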
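Measurement of cellular cAMP by homogeneous time-resolved fluorescence following a 30 min compound exposure at 37C. The PDE inhibitor […] was present throughout; the assay buffer was DPBS with 0.05% BSA and 0.005% Tween 20.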
* = called active by the depositor; ? = inconclusive; nt = no result given; & = joins results of further samples; [ ] = remark or other dose.

SMILES	Sfp inh	Menin-MLL FL inh	TRPV1 PAM	ClpP mod	TRPML1 blocker	gsp ag	gsp antag
Cc1ccc(C(=O)N/C(=C/c2cccs2)C(=O)NCc2ccco2)cc1	5%	1.4	10	-1.6%	68	-1%[15.4 µM]	7%
CCCCNc1cc(=O)oc2ccccc12	12%	-1.3	-8	-0.4%	-18	-19%	-1%
O=C(NCc1ccco1)C12CN(Cc3ccccc3)CC1C(c1ccc([N+](=O)[O-])cc1)=NO2 (centres undefined)	-28%	2.1	-12	0.1%	2	-5%	-8%
CCOC(=O)N1CCC(NC(=O)c2oc3c(F)cccc3c2C)CC1	16%	-2.6	-7	-2.7%	8	14%	0%
Cc1csc(=O)n1CC(=O)OCc1nnc(-c2ccc(Cl)cc2)o1	nt	nt	-5	3.3%	-3	-33%[inhibitor]	-21%
COc1ccc(NC(=O)CCN2CCCCCC2)cc1	1%	-0.6	0	0.1%	-2	5%	18%
COC(=O)c1ccc(NC(=O)Cc2ccccc2)cc1	-6%	0.6	-2	0.1%	-3	26%	12%
COc1ccc(Cn2nnnc2C(c2ccccc2Cl)N2CCC(C(N)=O)CC2)cc1 (centres undefined)	-1%	2.7	-10	7.0%	-6	-2%	-18%
COc1cccc(CN(C)C(=O)C2CC(=O)N(c3ccc4c(c3)OCCO4)C2)c1 (centres undefined)	nt	nt	3	14µM*	3	4%[15.4 µM]	11%
Cc1nc(N2CCOCC2)sc1C(=O)NN	56µM*	-0.8	-1	nt	9	19%[15.4 µM]	6%
COc1ccc(/C(C)=N/NC(=O)CNC(=O)c2ccco2)cc1	10%	-2.5	-4	nt	2	15%	9%
Cc1ccc(N2CC(C)Cn3c2nc2c3c(=O)n(CC(=O)OCc3ccccc3)c(=O)n2C)cc1C (centres undefined)	17%	1.2	1	-8.5%	-17	14%	-6%
CCN1C(=O)c2ccccc2S(=O)c2ccc(C(=O)N3CCN(C(=O)c4ccco4)CC3)cc21 (centres undefined)	-2%	3.2	-1	0.5%	-8	11%	-4%
Cc1cc2c(SCC(=O)Nc3cccc(O)c3)ncnc2s1	nt	nt	nt	nt	29	-6%[15.4 µM]	3%
COc1ccc(C(=O)C2CCCN(Cc3ccc4nonc4c3)C2)c(OC)c1 (centres undefined)	-13%	-1.9	-6	0.3%	-5	12%	-7%
COc1ccc(CCNC(=O)[C@H](C)NC(=O)[C@@H]2CSC3c4ccccc4C(=O)N32)cc1 (some centres undefined)	-6%	nt	-4	-1.8%	-11	13%	-1%
O=C(c1ccc2nc[nH]c2c1)N1CCc2ccccc2C1	4%	1.3	9	nt	3	23%[15.4 µM]	-53%
CCCCN=Cc1c(C)[nH]n(-c2ccccc2)c1=S	10µM*	0.6	-7	0.3%	36	-18%	-1%
CCOc1ccc(C(=O)OC2CCN(C)CC2)cc1	18%	-1.1	9	?	15	-12%	6%
O=C(OC(C(=O)NCc1cccs1)c1ccccc1F)c1ccco1 (centres undefined)	16%	1.2	-2	2.8%	10	-1%	1%
Cc1cc(C(=O)NCCCOC(C)C)c2ccccc2n1	12%	-6.2	2	-4.1%	4	8%	3%
COc1cc(C(=O)NCCc2ccccc2)ccc1OCC(=O)N1CCOCC1	nt	nt	-8	-2.2%	-3	6%	14%
Cc1cccc(/C=C(\C(=O)C(=O)O)c2ccc3ccccc3n2)c1	-3%	?	-1	nt	7	-13%[15.4 µM]	nt
COc1ccc(CCNC(=O)CNC(=O)Cn2ccc3ccccc3c2=O)cc1OC	13%	3.2	-2	nt	-2	5%[15.4 µM]	0%
CCCn1c(=O)c2ccccc2n2c(SCc3nc4ccccc4s3)nnc12	-18%	5.7	-16	-2.1%	12	0%	-11%
c1ccc(N2CCOCCOCCOCCOCC2)cc1	15%	4.6	-3	nt	-2	-3%[15.4 µM]	?
CC(=O)N[C@H]1[C@H](Oc2ccc3c(c2)CCC2C3CC[C@]3(C)C(=O)CCC23)O[C@H](CO)[C@@H](O)[C@@H]1O (some centres undefined)	18%	-0.4	0	-1.7%	-9	15%	9%
O=C(O)c1cccc(Nc2nc3ccccc3nc2NS(=O)(=O)c2cccs2)c1	14%	-4.9	7	-12%	25	5%	6%
C[C@H]1COC(=O)[C@H](Cc2ccc(F)cc2)CC/C=C/C[C@@H](CC(=O)N[C@@H](CO)Cc2ccccc2)C(=O)N1	nt	nt	nt	0.0%	-16	nt	-6%
Cc1ccc(NC(=O)CN(C)CC(=O)Nc2sc3c(c2C(N)=O)CCC3)cc1	8%	nt	-8	-5.1%	-8	?	-23%
CC(C)Cc1ccc(CN2CCC(n3nccc3NC(=O)C3CCCC3)CC2)cc1	2%	-3.6	-9	0.8%	-15	-16%	3%
CCOc1ccc(CNC(=O)CCC(=O)N2CCSc3ccccc32)cc1	12%	3.8	-3	-0.7%&-0.7%	-3&55	?	7%
CCc1cc2c(=O)n(-c3ccc(Br)cc3)cnc2s1	13%	2.6	-5	-0.1%	-3	14%	6%
COc1cc2c(cc1OC)/C(=C/C(=O)c1ccc(C)cc1)NCC2	-14%	27	9	nt	-17	12%[15.4 µM]	1%
CCCOc1ccc(-c2nnn(CC(=O)Nc3cccc(C(=O)OC)c3)n2)cc1	-20%	1.4	25	1.0%	34	17%	2%
COc1ccccc1CNC(=O)C1CCN(C(=O)[C@@H]2Cc3ccccc3CN2)CC1	12%	-1.2	-5	1.3%	37	?	-5%
COc1cccc(N=Cc2c[nH][nH]c2=O)c1	14%	0.4	-12	-0.5%	-10	-17%	3%
CSc1ccc(S(=O)(=O)Nc2ccc(NC(C)=O)cc2)cc1	7%	-1.3	5	0.3%	7	41%	-7%
Cc1ccc(NC(=O)CCC(=O)N/N=C/c2cccs2)cc1C	9%	3.6	14	-9.1%	0	-5%	-3%
CCC(=O)c1ccc(OCC(=O)OCC(=O)N(CCC#N)c2ccc3c(c2)OCCO3)cc1	nt	nt	nt	nt	8	-1%	-25%
O=C(c1ccc2c(c1)OCO2)N1CCC2(CC1)Oc1ccc(Cl)cc1C(=O)C21CC(c2ccccc2)=NO1 (centres undefined)	1%	?	2	1.3%	42	11%	-6%
CCc1c(O)c(/C(C)=N\O)c(=O)n(-c2ccccc2)c1-c1ccccc1	16%	-0.4	-2	-3.0%	5	?	-16%
Oc1ccc(-n2cccc2/C=N/n2cnnc2)cc1	-2%	-1.5	-3	nt	3	-11%	0%
O=C(Nc1ccc2c(c1)OCCO2)C1CCN(C(=O)c2ccc([N+](=O)[O-])cc2)CC1	22%	-3.5	-8	-2.2%	-10	-34%[inhibitor]	-4%
O=C(NC(=O)c1ccccc1Cl)Nc1ccc(-c2cnco2)cc1	7%	2.1	15	0.2%	26	?	4%
CCCC(=O)Nc1ccc(N2CCN(C(=O)c3cc4ccccc4o3)CC2)cc1	6%	1.4	-1	nt	-2	-8%[15.4 µM]	-3%
O=C(CSc1ccc(Cl)cc1)Nc1cccc(-c2nnc(-c3ccco3)o2)c1	-12%	3.1	4	?	-8	1%	0%
CNC(=O)c1ccsc1NC(=O)CN1C(=O)CCC1=O	-1%	2.1	-10	-2.2%	2	-16%	3%
CCOC(=O)Cc1nn(C)c(=O)c2ccccc12	19%	2.2	-8	-3.3%	2	-23%	3%
COc1cccc(C(=O)NCC(=O)NCc2cc(=O)n(C)c(=O)n2C)c1	3%	-2.3	-6	nt	14	14%	5%

One compound at a time, as listed above:
O=C(c1ccc2c(c1)OCO2)N1CCC2(CC1)Oc1ccc(Cl)cc1C(=O)C21CC(c2ccccc2)=NO1 (centres undefined) in the list: Sfp inh = 1%; Menin-MLL FL inh = ?; TRPV1 PAM = 2; ClpP mod = 1.3%; TRPML1 blocker = 42; gsp ag = 11%; gsp antag = -6%
CNC(=O)c1ccsc1NC(=O)CN1C(=O)CCC1=O in the list: Sfp inh = -1%; Menin-MLL FL inh = 2.1; TRPV1 PAM = -10; ClpP mod = -2.2%; TRPML1 blocker = 2; gsp ag = -16%; gsp antag = 3%

Remaining list, next part:
SMILES	Sfp inh	Menin-MLL FL inh	TRPV1 PAM	ClpP mod	TRPML1 blocker	gsp ag	gsp antag
CC(C)C(=O)NC(=O)COC(=O)/C=C/c1cccs1	10%	2.1	-5	nt	-18	-4%[15.4 µM]	4%
COc1ccc(NC(=O)CSc2ccccn2)c([N+](=O)[O-])c1	10%	1.7	-5	nt	6	-8%[15.4 µM]	-2%
COc1ccc([N+](=O)[O-])cc1NS(=O)(=O)c1cc(C(=O)N2CCN(C)CC2)ccc1OC	nt	nt	11	-0.9%	12	-49%[inhibitor]	-3%
CCCn1c(SCC(=O)Nc2cc(Cl)ccc2OC)n[nH]c1=O	4%	6.3	12	-0.2%	-21	21%	-11%
CCN1CCCc2cc(CN(CCN3CCOCC3)C(=O)Nc3ccc(C)c(C)c3)ccc21	-15%	5.9	-11	-13%	7	7%	-30%
NC(=O)Nc1ccc(F)cc1	11%	-4.7	-3	-1.5%	-20	2%	13%
CCNC(=S)NNC(=O)c1ccc(S(=O)(=O)NCc2ccco2)cc1	nt	nt	nt	?	-16	-5%[15.4 µM]	7%
COc1ccccc1OCC(=O)Nc1cc(S(=O)(=O)N2CCCCC2)ccc1N1CCCCC1	-15%	5.9	4	0.9%	-10	-4%	-6%
CCN(CC)S(=O)(=O)c1ccc2c(c1)c(=O)c(C(=O)NCc1cccs1)cn2C	17%	0.6	7	-2.9%	29	2%	?

A portion from further up:
SMILES	Sfp inh	Menin-MLL FL inh	TRPV1 PAM	ClpP mod	TRPML1 blocker	gsp ag	gsp antag
CCCn1c(SCC(=O)Nc2cc(Cl)ccc2OC)n[nH]c1=O	4%	6.3	12	-0.2%	-21	21%	-11%
CCN1CCCc2cc(CN(CCN3CCOCC3)C(=O)Nc3ccc(C)c(C)c3)ccc21	-15%	5.9	-11	-13%	7	7%	-30%
NC(=O)Nc1ccc(F)cc1	11%	-4.7	-3	-1.5%	-20	2%	13%
CCNC(=S)NNC(=O)c1ccc(S(=O)(=O)NCc2ccco2)cc1	nt	nt	nt	?	-16	-5%[15.4 µM]	7%
COc1ccccc1OCC(=O)Nc1cc(S(=O)(=O)N2CCCCC2)ccc1N1CCCCC1	-15%	5.9	4	0.9%	-10	-4%	-6%
CCN(CC)S(=O)(=O)c1ccc2c(c1)c(=O)c(C(=O)NCc1cccs1)cn2C	17%	0.6	7	-2.9%	29	2%	?
